Assay outcomes from PubChem.
VDR inhibitor – vitamin D3 receptor (human) inhibition. 0.93% of 400,000 active. VDR-SRC2-3 peptide fluorescence polarization, 2 h. P11473. AID 504847. Potency, µM, inactives show max response, negative = inhibition, actives largely listed as inhibitors; active = well fitted inhibition curve with a large enough effect; inconclusive = small, poorly fitted or top-dose-only effect, or another doubt; inactive = no such curve, though single readings can be large or run the other way; note: series mostly up to about 120 µM
Target sequence (P11473 whole entry, looked up): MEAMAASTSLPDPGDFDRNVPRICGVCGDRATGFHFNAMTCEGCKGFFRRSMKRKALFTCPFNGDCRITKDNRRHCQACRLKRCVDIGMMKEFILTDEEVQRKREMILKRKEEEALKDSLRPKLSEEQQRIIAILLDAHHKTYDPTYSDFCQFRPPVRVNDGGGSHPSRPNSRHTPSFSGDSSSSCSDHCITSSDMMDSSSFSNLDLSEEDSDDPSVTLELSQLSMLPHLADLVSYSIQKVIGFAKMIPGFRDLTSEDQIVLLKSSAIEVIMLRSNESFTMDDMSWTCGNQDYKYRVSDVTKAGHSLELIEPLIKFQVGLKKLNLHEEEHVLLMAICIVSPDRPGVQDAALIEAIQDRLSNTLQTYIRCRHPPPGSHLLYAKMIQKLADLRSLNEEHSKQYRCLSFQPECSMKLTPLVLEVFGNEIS
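Inhibition of the VDR/SRC2-3 peptide interaction is quantified by fluorescence polarization. Compounds (23 nl, pintool) incubate with the reagents for 2 hours at ambient room temperature.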
Numbers without * were called inactive; ? = inconclusive; & = joins results of further samples. % is set by controls: 0 for no effect and ±100 for the full control effect; potency is the fitted concentration of half-maximal effect. Not all compounds are listed; the hit share may differ from the screen's.

Start of the data: the first 3 records, ahead of the listing:
SMILES | VDR inhibitor
COC(=O)c1ccc(NC(=O)CCc2c(C)nc3c(c(C)nn3-c3ccc(C)cc3)c2C)cc1 | 2%
CC1(C)Cc2nc3sc4c(=O)[nH]cnc4c3cc2CS1 | 10%
Cc1cc(S(=O)(=O)NC2CCCCC2)ccc1OCC(=O)NCc1cccnc1 | -5%

Results, from the start:
SMILES | VDR inhibitor
COC(=O)c1ccc(NC(=O)CCc2c(C)nc3c(c(C)nn3-c3ccc(C)cc3)c2C)cc1 | 2%
CC1(C)Cc2nc3sc4c(=O)[nH]cnc4c3cc2CS1 | 10%
Cc1cc(S(=O)(=O)NC2CCCCC2)ccc1OCC(=O)NCc1cccnc1 | -5%
CN1CCN(c2ccc(NC(=O)C(C)(c3ccccc3)c3ccccc3)cc2)CC1 | 17%
COc1cccc(C2(c3cccc(OC)c3)CC2C(=O)Nc2ccccc2Cl)c1 (stereo unspecified) | 7%
CCCCCC(=O)N(CN1C(=O)CCC1=O)c1ccccc1 | -7%
O=C1C2C(C(=O)N1CC1CCCO1)C1C=CC2C12CC2 (stereo unspecified) | 7%
O=C(NNC(=O)C1CCN(S(=O)(=O)c2c(Cl)cccc2Cl)CC1)c1ccccc1O | -11%
COc1ccccc1CCNC(=O)Cn1ccc2cc(S(=O)(=O)N3CCCCCC3)ccc21 | -4%
O=c1cnnc(SCc2ccc([N+](=O)[O-])cc2)[nH]1 | 16%
COC(=O)c1c(NC(=O)c2ccccc2N(C)S(=O)(=O)c2ccccc2)sc2c1CCCC2 | 15%
COc1cccc(/C=C/c2onc(C)c2S(=O)(=O)N2CCC(C(=O)N3CCCCC3)CC2)c1 | -7%
c1cncc(CSc2ccc(-c3ccc4c(c3)OCO4)nn2)c1 | -2%
CCc1cccc(NC(=O)C2CCCN2C(=O)Nc2ccc(C)cc2)c1 (stereo unspecified) | 7%
CCOC(=O)Cc1c(C)nc2c(-c3ccccc3)c(C)nn2c1C | -5%
Cc1ccc(S(=O)(=O)N2CCN3CCCC3C2)cc1 (stereo unspecified) | -3%
O=C(CSc1nnc(-c2ccc(C(F)(F)F)cn2)o1)Nc1ccccc1Cl | -12%
Cc1nc2c(c(=O)c3ccccc3n2C)c(=O)n1-c1ccc(F)cc1 | -22%
Cc1ccccc1OCC(=O)NCC(=O)OCC(=O)c1ccc2ccccc2c1 | -22%&4%
CCOc1ccc(NC(=O)Cn2c(=O)cc(C)c3c(C)nn(C)c32)cc1 | -7%
Cc1cccc(OCC(=O)Nc2nnc(S(=O)(=O)N3CCCCC3)s2)c1 | -19%
COc1ccc(NC(=O)C(C)Sc2ccccc2)cc1 (stereo unspecified) | 0%
COc1cc(C(F)(F)F)ccc1C(=O)NCCc1ccco1 | -6%
CCC(NC(=O)c1ccccc1NC(=O)c1ccc(C)cc1)C(=O)O (stereo unspecified) | -6%
COc1ccc(C(=O)Nc2cc3c(cc2Cl)OCCCO3)cc1 | -4%
Cc1cc(OCC(=O)c2cccc(C(F)(F)F)c2)n2cnnc2n1 | -15%
COC(=O)CCCC(=O)N1CCC(CO)(CCc2ccccc2)CC1 | 10%
Cn1c(CNC(=O)C(C)(C)C)nc2ccccc21 | 2%
CN(C)c1ccc(CNC(=O)CN2C(=O)COc3ccc(S(=O)(=O)N4CCCC4)cc32)cc1 | 5%
CC(Cc1ccccc1)N(C)C(=O)CN1C(=O)c2ccccc2C1=O (stereo unspecified) | -6%
Nc1cc2c(cc1[N+](=O)[O-])OCCO2 | ?
CCOc1ccc2oc(=O)cc(CN3CCN(c4ccccc4OC)CC3)c2c1 | -3%
COc1ccc([C@H]2CC(=O)C=C(c3ccc4ccn(C)c4c3)C2)cc1 | -6%
Cc1ccc(Cn2cc(/C=N/NC(=O)Cc3nnc(NC(=O)c4ccc(C)cc4)s3)c3ccccc32)cc1 | 6%
CCC1CCCCN1S(=O)(=O)c1ccc(NC(=O)c2nc(SC)ncc2Cl)cc1 (stereo unspecified) | 15%
CCN(CC(=O)NCc1cccs1)C(=O)/C=C/c1cccc(OC)c1OC | -3%
CCOC(=O)N1CCC(NC(=O)C2=C(C)C(=O)OC23CCC(C)CC3)CC1 (stereo unspecified) | -20%
CN(C)c1ccc(/C=N\NC(=O)c2cccc3cc[nH]c23)cc1 | -9%
O=C(CSc1nc(-c2ccncc2)nn1CC(=O)N1CCCCC1)NC1CCCC1 | 15%
O=C(COc1ncnc2ccccc12)Nc1cccc([N+](=O)[O-])c1 | 2%

Laid out differently: results already given.
| VDR inhibitor | mol |
| --- | --- |
| ? | Nc1cc2c(cc1[N+](=O)[O-])OCCO2 |
| 5% | CN(C)c1ccc(CNC(=O)CN2C(=O)COc3ccc(S(=O)(=O)N4CCCC4)cc32)cc1 |
| 15% | O=C(CSc1nc(-c2ccncc2)nn1CC(=O)N1CCCCC1)NC1CCCC1 |
| 2% | Cn1c(CNC(=O)C(C)(C)C)nc2ccccc21 |
| -6% | CC(Cc1ccccc1)N(C)C(=O)CN1C(=O)c2ccccc2C1=O (stereo unspecified) |

New compounds follow:
SMILES | VDR inhibitor
C=CCSC1=N/C(=C\c2ccc(C(=O)O)cc2)C(=O)S1 | 9%
COCCn1c(N2CCN(c3ccc(OC)cc3)CC2)nc2c1c(=O)n(C)c(=O)n2C | 21%
Cc1nn(C)cc1C1C2=C(CC(C)(C)CC2=O)N(c2ccccc2)C2=C1C(=O)CC(C)(C)C2 | 0%
Cc1ccc(C)n1-c1ccc(C(=O)Nc2ccccc2F)cc1 | 15%
Cc1cccc(NC(=O)Cn2cnc3c(cnn3-c3ccc(F)cc3)c2=O)c1C | -2%
CCC(=O)Nc1ccc(-c2cc3ccccc3oc2=O)cc1 | 16%
CCCCC(=O)OCC(=O)c1ccc(OCC)cc1 | -4%
Cc1cc(C)c(NC(=S)N(CCCN2CCN(C)CC2)Cc2cccs2)c(C)c1 | 2%
Cc1ccc(S(=O)(=O)NCC(=O)N(CC(=O)NCC2CCCO2)CC2CCCO2)cc1 (stereo unspecified) | -7%
CCCCOc1ccc(-c2cc(C(=O)NNC(=S)NCC)c3ccccc3n2)cc1 | 12%
COc1ccc(N2CCN(c3nc(NC(C)(C)C)nc(N4CCCCC4)n3)CC2)cc1 | 1%
C[C@@H](C(=O)NCCc1c[nH]c2ccccc12)[C@@H]1C[C@@]1(C)[C@@H](NC(=O)OCc1ccccc1)c1ccccc1 | 4%
CC(C)OC(=O)Cn1nc(C(F)(F)F)c2c1CCCC2 | 2%
O=C(Nc1cccc(S(=O)(=O)N2CCCCC2)c1)Nc1ccc(Cl)cc1Cl | -1%
Cc1cccc(/C=N/N(CCO)C2=NS(=O)(=O)c3ccccc32)c1 | 20%
O=C(O)C1C2C=CC(C2)C1C(=O)NC1CCS(=O)(=O)C1 (stereo unspecified) | 12%
O=S(=O)(c1cc(Cl)ccc1Cl)N1CCCCC1 | -9%
Cc1ccc(S(=O)(=O)NC(=O)NC(C)Cc2ccccc2)cc1 (stereo unspecified) | 0%&9%
C/C(=N\NC(=O)COc1ccccc1)c1cccs1 | -2%
Cc1ccccc1-n1c(C)cc(/C=N/NC(=O)c2ccncc2)c1C | -1%
C/C(N)=C(/C#N)C(=O)COC(=O)c1ccccc1Oc1ccccc1 | ?
CCOc1cc(C#N)c(NC(=O)CSc2nnnn2-c2ccc(OC)cc2)cc1OCC | -9%
COC(=O)c1ccc(C2C(C(=O)c3ccco3)=C(O)C(=O)N2CC2CCCO2)cc1 (stereo unspecified) | -2%
O=C(CNC(=O)C12CC3CC(CC(C3)C1)C2)NCc1ccccc1 | 2%
CCCN(CC(=O)Nc1ccccc1C)C(=O)c1ccc2c(c1)OCO2 | -1%
O=C(Nc1ccc(F)cc1)c1oc2ccccc2c1NC(=O)C12CC3CC(CC(C3)C1)C2 | -2%
COCCn1nnnc1C(c1ccccc1)N1CCN(C(=O)c2ccco2)CC1 (stereo unspecified) | -29%
COCCN(C(=O)C1CC(=O)N(Cc2ccccc2)C1)c1nc(-c2ccc([N+](=O)[O-])cc2)cs1 (stereo unspecified) | -11%
CCn1c(CSc2n[nH]c(N)n2)nc2cc(C(=O)O)ccc21 | ?
COc1ccccc1OCC(=O)Nc1cc(Cl)ccc1N1CCCCC1 | -9%
COc1ccccc1N1CCN(CCCOc2ccc(F)cc2)CC1 | 11%
CN(CC(=O)N1CCCC1)S(=O)(=O)c1ccc(Cl)cc1 | 10%
NC(=O)c1cc(S(=O)(=O)NCC2CCC(C(=O)Nc3cccc(Cl)c3)CC2)cs1 (stereo unspecified) | 4%
CN(Cc1ccccc1)C(=O)Cn1nc(C(F)(F)F)c2c1CCC2 | 0%
S=C(NCC1CC1)N/N=C/c1ccccc1Cl | 0%
CCOC(=O)c1cc2sccc2n1CC(=O)c1ccc2c(c1)OCCO2 | 3%
CCC(C(=O)Nc1ccc2c(c1)OCCO2)n1nnc2ccccc2c1=O (stereo unspecified) | -1%
CC(=O)NC1C(=O)N(C)c2ccc(Br)cc21 (stereo unspecified) | 8%
O=C(COCc1cc(-c2cccs2)on1)Nc1cc(Cl)ccc1O | -6%
CCOC(=O)c1c(C)[nH]c(C)c1C(=O)COC(=O)c1cc(OC)cc(OC)c1 | 5%
CC1(c2ccccc2)NC(=O)N(CC(=O)N2CCN(S(=O)(=O)c3ccccc3[N+](=O)[O-])CC2)C1=O (stereo unspecified) | -3%
NC(=O)CNC(=O)C1CCN(S(=O)(=O)c2ccc(-n3cnnn3)cc2)CC1 | -3%
COc1ccc2c(c1)c(N1CCCC1=O)c(C(=O)Nc1ccc(OC)c(Cl)c1)n2C | 13%
Cc1cc(C)nc(NC(=O)c2cc(Br)ccc2Cl)n1 | 4%
Cc1cc(N2CCN(S(=O)(=O)c3ccc4c(c3)OCCO4)CC2)n2ncnc2n1 | -2%
COC(=O)c1cc(NC(=O)Nc2ccccc2)ccc1Cl | 7%
CC(=O)n1cc([C@H]2C=C(C(=O)N3CCN(Cc4ccc5c(c4)OCO5)CC3)O[C@@H](OCc3ccc(CO)cc3)C2)c2ccccc21 | -15%
O=C(CSc1ncn[nH]1)NCCc1ccc(Cl)cc1 | 19%
Cc1cccc(-n2c(SCC(N)=O)nnc2-c2ccccn2)c1C | -15%
CCc1ccccc1NC(=O)CNC(=O)CSC(=S)N1CCCC1 | -10%
COc1ccccc1C1CN(c2ccccc2)N=C1c1cccs1 (stereo unspecified) | -7%
CCOc1ccc(-c2n[nH]c(=S)n2/N=C/c2cc3c(cc2[N+](=O)[O-])OCO3)cc1 | -6%
COc1ccccc1CN1CC2(CCN(C(=O)c3cccc(F)c3)CC2)C1 | 1%
COc1ccc(OC)c(NC(=O)CN(Cc2ccc(Cl)cc2)S(C)(=O)=O)c1 | -7%
COc1cc(C(=O)NNC(=O)c2ccc3c(c2)OCCO3)cc(OC)c1OC | -6%
COc1ccc(CNC(=O)C2CCN(c3nnc(-n4c(C)ccc4C)s3)CC2)c(OC)c1 | 0%
Cc1cnc(NC(=O)CSc2nnc(-c3ccncc3)n2C2CCCCC2)s1 | 20%
CCOC(=O)c1c2n(c3ccc(O)cc13)CCCCC2 | 26%
O=C(CON=C1c2ccccc2-c2ccccc21)NC12CC3CC(CC(C3)C1)C2 | 6%
CCOC(=O)c1c(O)c2ccccc2oc1=O | -6%

Further results follow:
SMILES | VDR inhibitor
O=C(c1cccnc1)N1N=C(C2CC2)CC1(O)C(F)(F)F (stereo unspecified) | -9%
O=C(NC1CCCC1)C(c1ccccc1F)N(C(=O)c1csnn1)C1CC1 (stereo unspecified) | 2%
Cc1ccccc1Nc1ncnc2c1c(-c1ccccc1)cn2-c1ccc(F)cc1 | -1%
O=C(CN(c1ccc(Cl)c(C(F)(F)F)c1)S(=O)(=O)c1ccccc1)N/N=C/c1cccc2c1OCCO2 | -2%
CCCCNC(=O)[C@H]1C[C@H]1[C@@H](O)[C@H](CO)NC(=O)[C@H](Cc1ccccc1)NC(=O)OC(C)(C)C | -11%
CCC(=O)N1CCc2nc(-c3ccccc3)sc2C1 | -1%
O=C(CCC1N=C2c3ccccc3N=C(SCc3ccc(F)cc3)N2C1=O)NCc1ccco1 (stereo unspecified) | 4%
O=C(CCNS(=O)(=O)c1c(Cl)cccc1Cl)OCC(=O)c1ccccc1 | -7%
Fc1ccc(-c2csc(-c3cccnc3)n2)cc1F | 1%
COc1ccc2c(c1)C1CC(C)(NC(=O)C1C(=O)c1ccccc1)O2 (stereo unspecified) | 15%
Cc1[nH]n(-c2cccc([N+](=O)[O-])c2)c(=O)c1-c1ccccc1 | -16%
Cc1onc(-c2ccccc2Cl)c1C(=O)Nc1ccc(Cl)cn1 | -13%
CN(CC(=O)N1CCN(Cc2ccccc2)CC1)S(=O)(=O)c1ccc(F)cc1 | -2%
O=C(CN1C(=O)NC2(CCCC2)C1=O)Nc1nc2ccccc2s1 | -8%
COC(=O)c1ccc(S(=O)(=O)c2ccccc2)c(N)c1 | -8%
COc1ccc(S(=O)(=O)CCC(=O)N2c3ccccc3CC2C)cc1 (stereo unspecified) | 10%
COc1ccc(OC)c(S(=O)(=O)N2CCC(C(=O)N3CCN(Cc4ccccc4)CC3)CC2)c1 | 18%
COc1ccc(CC(=O)NC2CC(=O)N(c3cccc(F)c3)C2)cc1OC (stereo unspecified) | -4%
COc1ccc(-n2c(N)c(Br)c(=O)[nH]c2=O)cc1 | 8%

Exported as comma-separated lines: five of the compounds above
mol,VDR inhibitor
COC(=O)c1ccc(S(=O)(=O)c2ccccc2)c(N)c1,-8%
CCCCNC(=O)[C@H]1C[C@H]1[C@@H](O)[C@H](CO)NC(=O)[C@H](Cc1ccccc1)NC(=O)OC(C)(C)C,-11%
Cc1[nH]n(-c2cccc([N+](=O)[O-])c2)c(=O)c1-c1ccccc1,-16%
COc1ccc2c(c1)C1CC(C)(NC(=O)C1C(=O)c1ccccc1)O2 (stereo unspecified),15%
Cc1onc(-c2ccccc2Cl)c1C(=O)Nc1ccc(Cl)cn1,-13%
